From PubChem BioAssay
StopGo FLuc – Primary qHTS Assay for Foot and Mouth Disease Virus Antivirals against NCGC Sytravon and CBC Compound Libraries: Firefly Luciferase Signal. HEK cells with a luciferase reporter of 2A StopGo recoding. 120,000 tested, 0.23% active. Potency, µM (highest dose often 57.5 µM), for the others: at the highest dose signal change, negative = less light; active = well fitted falling curve with a large enough effect; inconclusive = small, poorly fitted or top-dose-only effect; inactive = no such curve, though single readings can be large or run the other way; note: nearly all actives have a fitted effect of over 60% in size; overnight with compound
StopGo RLuc – Primary qHTS Assay for Foot and Mouth Disease Virus Antivirals against NCGC Sytravon and CBC Compound Libraries: Renilla Luciferase Signal; AID 1745857, 2022; HEK cells with a luciferase reporter of 2A StopGo recoding; Potency, µM (doses to about 57.5 µM), for the others: at the highest dose signal change, negative = less light; 120,000 tested, 0.32% active; active means well fitted falling curve with a large enough effect; inconclusive means small, poorly fitted or top-dose-only effect; inactive means no such curve, though single readings can be large or run the other way; note: nearly all actives have a fitted effect of over 55% in size; overnight with compound
The depositor's hits bear a star; ? = inconclusive; [ ] = dose if it differs, or a comment. % is set by controls: 0 for no effect and ±100 for the full control effect; potency is the fitted concentration of half-maximal effect.

(1) CCOC(=O)c1c(-c2ccccc2)csc1NC(=O)c1cc(-c2cccc(Cl)c2)on1
(2) CNC(=O)NC(=O)C(C)n1nc(C(=O)O)c2ccccc2c1=O (centres undefined)
(3) Cc1c(C)n(CCCN2CCOCC2)c2ncn3nc(CSc4nc5ccccc5o4)nc3c12
(4) COc1ccc(C2C(C(=O)Nc3ccc(C)cc3C)=C(C)Nc3nc(SCc4cccc(C)c4)nn32)c(OC)c1 (centres undefined)
(5) CCc1ccc(OCc2nc(-c3ccc(OC)c(OC)c3)no2)c(Br)c1
(6) COc1cccc(Cn2c(=O)n(Cc3ccccc3)c(=O)c3c2c2cc(OC)ccc2n3C)c1
(7) c1cc(CNCCCN2CCCCC2)cs1
(8) CCCc1c(C)nc(Nc2nc(C)c3cc(CC)ccc3n2)[nH]c1=O
(9) CCCCOc1ccc(NC(=O)C(C)C)c2cccnc12
(10) CC(=O)c1c(C)[nH]c(C)c1C

entry no.	1	2	3	4	5	6	7	8	9	10
StopGo FLuc	1%	-8%	15%	-18%	1%	-3%	-17%	-3%	15%	10%
StopGo RLuc	-14%	-11%	2%	-13%	-13%	-6%	-15%	-9%	-2%	10%

(11) CCOc1ccccc1CNC(=O)c1ncoc1-c1ccc(OC)cc1
(12) Cc1cccc(NC(=O)CNC(=O)c2cc(=O)c3ccccc3o2)c1C
(13) Cc1cc2ccccc2n1-c1ccc(C(=O)N2CCC(C(=O)NCc3ccccc3Cl)CC2)s1
(14) CC1CCCCC1NC(=S)Nc1cccc2cnccc12 (centres undefined)
(15) CC12CN(CC#N)CC(C)(CN(CC#N)C1)C2=O
(16) CC1CCN(CCCNC(=O)CN2C(=O)CSc3ccc(S(=O)(=O)N4CCC(C)CC4)cc32)CC1
(17) C/C(CC1CC2=C(CC1(C)C)C(C)(C)CCC2)=N\O (centres undefined)
(18) Cc1ccc(NC(=S)NCc2ccccc2Cl)cc1
(19) Cc1oc2ncn(C)c(=O)c2c1C(=O)NC(C)c1ccccc1 (centres undefined)
(20) CC1=C(C(=O)OC(C)C)C(c2ccc(Cl)cc2Cl)CC(=O)N1 (centres undefined)

entry no.	11	12	13	14	15	16	17	18	19	20
StopGo FLuc	?	-10%	24%	14µM*	0%	?	2%	61%[activator]	7%	?
StopGo RLuc	?	8%	4%	?	22%	-25%	-2%	204%[activator]	-8%	?

(21) CCc1cccc(CC)c1NC1=NS(=O)(=O)c2ccccc21
(22) COC(=O)C1=C(C)Nc2nc3ccccc3n2C1c1cccc(C)c1 (centres undefined)
(23) O=C1NC(NS(=O)(=O)c2ccccc2)(C(F)(F)F)C(=O)N1c1ccc(F)cc1 (centres undefined)
(24) CN(Cc1ccc(Cl)cc1)C(=O)c1ccc2ccccc2n1
(25) CN(Cc1ccc(C(=O)NCC(F)(F)F)cc1)C(=O)Nc1ccccc1
(26) O=C(c1cnn(-c2ccccc2)c1-n1cccc1)N1CCN(c2ccccc2)CC1
(27) COc1ccc(-c2cc(C(=O)NCc3cc(OC)c(OC)c(OC)c3)[nH]n2)cc1
(28) CC(=O)NCCC(=O)N(C)CC(=O)Nc1ccccc1C(F)(F)F
(29) CC(C)CC(=O)Nc1ccc2oc(-c3cccnc3)nc2c1
(30) COc1cc([N+](=O)[O-])ccc1NC(=O)N1CCC2(CC1)Nc1ccccc1-n1cccc12

entry no.	21	22	23	24	25	26	27	28	29	30
StopGo FLuc	-21%	0%	-2%	3%	?	-3%	22%	-4%	175%[activator]	-29%
StopGo RLuc	-5%	0%	-6%	34%[activator]	?	-3%	48%[activator]	1%	-4%	-18%

(31) CCCCNC(=O)C1CCN(c2nc3ccccc3nc2C(F)(F)F)CC1
(32) CCCOc1ccc(NC(=O)CC2C(=O)N(c3ccc(C)cc3)C(=O)N2CCc2ccncc2)cc1 (centres undefined)
(33) O=C(COC(=O)c1cc(=O)c2ccccc2o1)Nc1cc(C(F)(F)F)ccc1Cl
(34) COc1cc(C(=O)/C=C/c2ccc(Cl)cc2Cl)ccc1OCC(=O)O
(35) COc1cc(OC)cc(C(=O)N2CC(=O)Nc3ccc(Cl)cc3C2c2ccccc2)c1 (centres undefined)
(36) Nc1nc(N2CCN(Cc3ccc(Cl)cc3)CC2)c2[nH]cnc2n1
(37) CCOc1ccc(-n2cnc3sc4c(c3c2=O)CCCC4)cc1
(38) COc1cc(C(=O)Nc2cccc(-c3nc4cc(C)ccc4o3)c2)cc(OC)c1OC
(39) Cc1cccc(N2CCN(C(=O)c3c(C)oc4ncnc(N5CCOCC5)c34)CC2)c1C
(40) COc1ccc(CN(C(=O)c2ccc(S(=O)(=O)N(C)C)cc2)C(C)Cc2cccs2)cc1 (centres undefined)

entry no.	31	32	33	34	35	36	37	38	39	40
StopGo FLuc	7%	-23%	9%	12%	87%[activator]	9%	102%[activator]	10%	-7%	20%
StopGo RLuc	0%	-11%	-13%	-15%	149%[activator]	-7%	9%	-2%	4%	94%[activator]

Reprinted at random: 6 compounds from above
(38) COc1cc(C(=O)Nc2cccc(-c3nc4cc(C)ccc4o3)c2)cc(OC)c1OC
(36) Nc1nc(N2CCN(Cc3ccc(Cl)cc3)CC2)c2[nH]cnc2n1
(39) Cc1cccc(N2CCN(C(=O)c3c(C)oc4ncnc(N5CCOCC5)c34)CC2)c1C
(33) O=C(COC(=O)c1cc(=O)c2ccccc2o1)Nc1cc(C(F)(F)F)ccc1Cl
(31) CCCCNC(=O)C1CCN(c2nc3ccccc3nc2C(F)(F)F)CC1
(37) CCOc1ccc(-n2cnc3sc4c(c3c2=O)CCCC4)cc1

entry no.	38	36	39	33	31	37
StopGo FLuc	10%	9%	-7%	9%	7%	102%[activator]
StopGo RLuc	-2%	-7%	4%	-13%	0%	9%

Additional compounds
(41) CCOc1ccc(CCNC(=O)c2nn(C)c3c2CSc2ccccc2-3)cc1
(42) CC(=O)c1c(SCC(=O)Nc2ccc(F)cc2)nc(=O)[nH]c1C
(43) CCCOc1ccc(NC(=O)Cc2ccc(OC)cc2)c2cccnc12
(44) O=C(NC1CC1)c1cccc(NC(=O)c2cn(-c3ccccc3)nc2-c2cccnc2)c1
(45) Cc1ccc(Nc2nc3ccc(C(=O)c4ccccc4)cc3n3c(C)nnc23)c(C)c1
(46) Cc1ccc(C)c(OCC(O)Cn2cnc3c2c(=O)n(C)c(=O)n3C)c1 (centres undefined)
(47) CN(C)CCN(CC(=O)OC(C)(C)C)C(=O)/C=C/c1ccccc1F
(48) O=C1Nc2ccccc2C1(c1ccc(O)cc1)c1ccc(O)cc1
(49) COc1ccc(NC(=O)c2cccn(Cc3ccc(Cl)cc3)c2=O)c(OC)c1
(50) COc1ccccc1-c1cc(=O)c2cc(NC(=O)c3ccccc3Br)ccc2o1

entry no.	41	42	43	44	45	46	47	48	49	50
StopGo FLuc	-13%	-10%	4%	69%[activator]	-14%	0%	11%	7%[11.5 µM]	?	111%[activator]
StopGo RLuc	-2%	-23%	-4%	33%[activator]	-11%	2%	3%	10%	?	48%[activator]

(51) CCOC(=O)c1sc(NC(=O)C2CC(=O)N(c3cccc(C)c3C)C2)nc1C (centres undefined)
(52) Cc1ccc(/C=N/Nc2ccc(Cl)c(Cl)c2)cc1
(53) Nc1ncnc(Nc2ccccc2Cl)c1[N+](=O)[O-]
(54) O=C(NCc1ccccn1)C1CCN(C(=O)c2ccc(C(F)(F)F)cc2)CC1
(55) O=C(NC1(c2ccccc2)CCC1)c1cc(=O)[nH]c2ccccc12
(56) CCCNc1nc2ccccc2nc1C(=O)Nc1ccccc1C
(57) O=C(Nc1cccc(Br)c1)N1CCN2CCCCC2C1 (centres undefined)
(58) CN(Cc1ccc(C(N)=O)cc1)Cc1cccs1
(59) O=C(OCc1nc2ccccc2o1)c1ccccc1Br
(60) FC(F)(F)c1cnc(Sc2ncnc3sccc23)c(Cl)c1

entry no.	51	52	53	54	55	56	57	58	59	60
StopGo FLuc	3%	182%[activator]	14%	6%	-3%	13%	31%[activator]	35%[activator]	197%[activator]	-4%
StopGo RLuc	14%	30%	5%	-1%	14%	1%	-5%	2%	8%	?

(61) CCN(CC)c1nc(N(C)C)nc(-n2cnc(SCc3ccccc3)n2)n1
(62) Cc1ccc(NC(=O)C(C#N)=C2CCC(C)CC2)cc1 (centres undefined)
(63) Nc1nonc1C(=O)NCCNCc1ccccc1F
(64) CCc1nc(SC)ncc1C(=O)N1CCN(c2cc(C)ccc2C)CC1
(65) COc1cccc(-n2cc(C(=O)Nc3cc(OC)c(OC)c(OC)c3)c3ccccc3c2=O)c1
(66) Cc1oc(-c2cccc(C(F)(F)F)c2)cc1C(=O)NC(C)C
(67) CCOC(=O)C1=C(CS(=O)(=O)c2ccc(C)c(C)c2)NC(=O)NC1c1ccc(O)cc1 (centres undefined)
(68) Cn1cccc1C1CCCN1Cc1nnc(-c2ccccc2)o1 (centres undefined)
(69) CCOc1cc2sc(N3CCC(C(=O)Nc4ccc(C)cc4C)CC3)nc2cc1Br
(70) CCOC(=O)c1nc2ccccc2nc1N1CCN(c2ccc(Cl)cc2)CC1

entry no.	61	62	63	64	65	66	67	68	69	70
StopGo FLuc	33%	144%[activator]	-2%	-16%	17%	0%	-12%	45%[activator]	104%[activator]	-5%
StopGo RLuc	9%	26%	-7%	-18%	11%	9%	-12%	17%	-4%	3%

Gathered by group: the compounds so far with a furan ring, fused or not (3)
(19) Cc1oc2ncn(C)c(=O)c2c1C(=O)NC(C)c1ccccc1 (centres undefined)
(39) Cc1cccc(N2CCN(C(=O)c3c(C)oc4ncnc(N5CCOCC5)c34)CC2)c1C
(66) Cc1oc(-c2cccc(C(F)(F)F)c2)cc1C(=O)NC(C)C

entry no.	19	39	66
StopGo FLuc	7%	-7%	0%
StopGo RLuc	-8%	4%	9%

Next results:
(71) COc1ccc(NC(=O)CNC(=O)Cn2c(C)cc3ccccc3c2=O)c(OC)c1
(72) CCCCc1nn2c(=O)cc(COC(=O)CNC(=O)COc3ccc(C)cc3)nc2s1
(73) COc1ccc(C(=O)Nc2ccccc2)cc1S(=O)(=O)Nc1ccc(Br)cc1
(74) O=C(Cn1ccc2c(Br)cccc21)NCCCO
(75) OCCNC(=S)Nc1ccc(Br)cc1
(76) COc1cccc(OC)c1C(=O)Nc1cccc(-c2nc3ccc(C)cc3o2)c1
(77) CC1CCN(CC2CCN(C(=O)NCc3ccc(F)cc3)CC2)CC1
(78) Cc1cc(C)cc(-c2nnc(SCC(=O)N3CCCC3)o2)c1
(79) Cc1ccc(-n2ccnc(NCCc3ccc(S(N)(=O)=O)cc3)c2=O)c(C)c1
(80) Cc1ccc(CSc2ccc3nnc(CCNS(=O)(=O)c4ccc(C)cc4)n3n2)cc1

entry no.	71	72	73	74	75	76	77	78	79	80
StopGo FLuc	-16%	-17%	2%	16%	40%[activator]	12%	-14%	101%[activator]	?	-8%
StopGo RLuc	-10%	-18%	376%[activator]	-1%	5%	?	-13%	11%	?	0%

Complete entries, quoted from the list. Screens in order: StopGo FLuc	StopGo RLuc
`COc1ccc(C(=O)Nc2ccccc2)cc1S(=O)(=O)Nc1ccc(Br)cc1` across the screens: 2%	376%[activator]
`Cc1ccc(CSc2ccc3nnc(CCNS(=O)(=O)c4ccc(C)cc4)n3n2)cc1` across the screens: -8%	0%
`COc1ccc(NC(=O)CNC(=O)Cn2c(C)cc3ccccc3c2=O)c(OC)c1` across the screens: -16%	-10%

Next part.
(81) Cc1cc(C)cc(NC(=O)CSc2ccc(Cl)cc2)c1
(82) O=C(c1cnc(N2CCCCC2)c2ccccc12)N1CCN(c2cccc(Cl)c2)CC1
(83) CSC1=N/C(=C\c2ccc(OCC(=O)O)cc2)C(=O)S1
(84) Cc1ccc2c(c1)N(CC(=O)NCCc1ccccc1)C(=O)CO2
(85) O=C(NCc1ccc(F)cc1)c1cccc(N2CCCS2(=O)=O)c1
(86) O=C(Cc1n[nH]c(=O)c2ccccc12)OCc1nc(-c2ccc(Cl)cc2)no1
(87) Cc1[nH]c2ccccc2c1-c1csc(NC(=O)C2CCOCC2)n1
(88) Cc1ccc(Cl)cc1N1CCN(C(=O)c2cnn(-c3ccc(Cl)cc3)c2C2CCNCC2)CC1

entry no.	81	82	83	84	85	86	87	88
StopGo FLuc	3%	-1%	14%	-5%	0%	3%	24%	-4%
StopGo RLuc	-4%[1.06 µM]	27%	7%[1.06 µM]	-1%	19%	-9%	6%	-5%

The list is partial; rates above refer to the full screens.
